# Vaccinia mCherry: vaccinia inhibition (mCherry reporter). Potency, µM (titrated, usually from 36.5 µM), for inactives: at the highest dose activity change, negative = inhibition, hits mostly inhibitors. 310,000 compounds, 0.63% hits. Vaccinia virus mCherry reporter infection, fluorescence; about a quarter of the inactives have no number; active = well fitted inhibition curve with a large enough effect; inconclusive = small, poorly fitted or top-dose-only effect; inactive = no such curve, though single readings can be large or run the other way; tested in A549 cells; also: nearly all actives have a fitted effect of over 35% in size; inactives centre near -10
# Vaccinia Venus: vaccinia inhibition (Venus reporter). 330,000 compounds, 0.46% hits. Vaccinia virus Venus reporter expression, fluorescence. Potency, µM (top dose mostly 36.5 µM), for the others: at the highest dose activity change, negative = inhibition, most hits filed as inhibitors; active means well fitted inhibition curve with a large enough effect; inconclusive means small, poorly fitted or top-dose-only effect; inactive means no such curve, though single readings can be large or run the other way; tested in A549 cells; also: nearly all actives have a fitted effect of over 30% in size; inactives centre near -10
# An asterisk follows results filed as active; i = inactive; ? = inconclusive; . = no result given; & = joins results of further samples; [ ] = dose if it differs, or a comment. % is scaled to controls: 0 for no effect and ±100 for the full control effect; potency is read from the fitted curve at half-maximal effect. Hits appear at their usual frequency; 0.86% or so of the library scored in one or more.
# Each structure is followed by: Vaccinia mCherry	Vaccinia Venus
- O=C(O)c1cc(=O)[nH]c2c(Cl)cccc12
  i	-5.7%
- Cc1onc(C(=O)N2CCN(C(c3ccccc3)c3ccccc3)CC2)c1[N+](=O)[O-]
  15.0%	-3.8%
- O=C(CCc1nc2ccccc2c(=O)[nH]1)NNC(=O)c1ccc(Cl)cc1
  -7.9%	-8.8%
- Cc1ccc2cc(C)c(N3CCC(C)CC3)nc2c1
  i	-1.7%
- CC1(C)CC(=O)C(C2C3=C(CC(C)(C)CC3=O)Oc3ccc4ccccc4c32)C(=O)C1 (stereo not drawn)
  -14.2%	-16.1%
- COC(=O)c1ccc(CNC(=O)Cn2cnc(C(=O)Nc3ccc(C)c(C)c3)n2)cc1
  -5.2%	-3.0%
- CCCCNC(=O)c1ccc2c(c1)NC(=O)C(CS(=O)(=O)Cc1ccc(F)cc1Cl)N2 (stereo not drawn)
  -14.1%	4.1%
- CSc1cccc(NS(=O)(=O)c2ccc3c(c2)oc(=O)n3C)c1
  -15.8%	-14.0%
- COc1ccc(N2CC(C(=O)N[C@@H](C)C(=O)NCCc3ccccc3)CC2=O)cc1 (stereo partly drawn)
  -2.1%[7.34 µM]	-14.5%[7.34 µM]
- CCC(C)NC(=O)CSc1nc2c(sc3ccccc32)c(=O)n1Cc1ccccc1Cl (stereo not drawn)
  -28.7%	-29.1%
- CCOc1ccc(N)cc1OC
  -3.1%	-1.2%
- CS/C(=N/S(=O)(=O)c1ccc(C)cc1)c1ccccc1
  -11.4%	-12.4%
- CCOC(=O)C(=O)/C(=C\N(C)C)c1onc(-c2ccccc2Cl)c1C(=O)OC
  .	-8.1%
- CC(C)n1nnnc1SCC(=O)NCc1ccc2c(c1)OCO2
  -6.7%	-6.5%
- CCC(CC)NC(=O)/C=C/c1cccc([N+](=O)[O-])c1
  -10.7%	-3.6%

# In another format: 3 of the compounds above
canonical_smiles | Vaccinia mCherry | Vaccinia Venus
COC(=O)c1ccc(CNC(=O)Cn2cnc(C(=O)Nc3ccc(C)c(C)c3)n2)cc1 | -5.2% | -3.0%
CCCCNC(=O)c1ccc2c(c1)NC(=O)C(CS(=O)(=O)Cc1ccc(F)cc1Cl)N2 (stereo not drawn) | -14.1% | 4.1%
CSc1cccc(NS(=O)(=O)c2ccc3c(c2)oc(=O)n3C)c1 | -15.8% | -14.0%

# (more compounds)
# Each structure is followed by: Vaccinia mCherry	Vaccinia Venus
- COc1ccc(S(=O)(=O)n2cnc(C)c2)cc1
  i	-3.1%
- COc1cc(-c2noc(C)c2C(=O)NCCCN2CCOCC2)cc(OC)c1OC
  -5.2%	1.1%
- NS(=O)(=O)c1ccc(CCNC(=O)c2ccco2)cc1
  -4.8%	-4.3%
- CCCn1c(O)c(N=NC(=O)c2ccco2)c2ccccc21
  -3.5%	-18.3%
- Cc1ccc(C)c(C(=O)CSc2nc3cc(C(=O)NC4CCCC4)ccc3c(=O)n2CC2CCCO2)c1 (stereo not drawn)
  -16.2%	-11.9%
- CN(CC(=O)Nc1ccc(S(=O)(=O)N(C)C)cc1)Cc1ccc(C(F)(F)F)cc1
  -6.0%	4.9%
- COc1ccc(-n2nnnc2-c2cccc(OC)c2)cc1
  ?	?
- CCCCOCCCNC(=O)C[C@@H]1C[C@@]2(C(=O)OCC)CCC=C2N(Cc2cccc3ccccc23)C1=O
  0.1%	-19.4%
- O=C(NCc1ccccc1F)C1CCCN(C(=O)N2CCOc3ccccc32)C1 (stereo not drawn)
  -11.5%	-4.4%
- COc1ccc(NC(=O)C2CCC(CNS(=O)(=O)c3cccs3)CC2)cc1OC (stereo not drawn)
  -13.1%&-12.9%	-8.1%&-8.0%
- Cc1ccc(C)c(S(=O)(=O)NCC(c2ccco2)N2CCc3ccccc3C2)c1 (stereo not drawn)
  -27.6%	-3.7%
- Cc1ccc(N(C(=O)c2sc(C)nc2C)C(C(=O)NCc2ccco2)c2ccccc2)cc1 (stereo not drawn)
  i	-15.7%
- COC(=O)c1ccc(Oc2nc(N(C)C)nc(N3CCOCC3)n2)cc1
  -10.4%	-6.4%
- Cc1nnc(SC(C)C(=O)Nc2c(C)n(C)n(-c3ccccc3)c2=O)n1N (stereo not drawn)
  -1.8%	2.7%
- CCOC(=O)c1noc2nc(C)n(Cc3ccc([N+](=O)[O-])cc3)c(=O)c12
  -5.3%	8.9%
- O=C(CSCc1ccccc1)N1CCN(C(=O)c2ccco2)CC1
  i	-25.3%
- C[C@]12CC[C@@H]3c4ccc(O)cc4CC[C@H]3[C@@H]1CC[C@@H]2OC(=O)CCC(=O)O
  -15.1%	-20.5%
- CC1COc2ccccc2N1S(=O)(=O)c1ccccc1 (stereo not drawn)
  -17.6%	-6.3%
- CNc1cccc(-c2ccccc2C(C)=O)n1
  31.1%[activator]	10.8%
- CC1=C(C(=O)N2CCCC(CCC(=O)NCc3ccccc3F)C2)OCCO1 (stereo not drawn)
  i	-3.6%
- COc1ccc(NC(=O)C(c2cc3c(cc2[N+](=O)[O-])OCO3)N2CCN(C=O)CC2)cc1 (stereo not drawn)
  -14.8%	-0.4%
- CCC(C)c1ccccc1NC(=O)C(C)OC(=O)CN1C(=O)NC(C)(C)C1=O (stereo not drawn)
  -14.4%	-2.1%
- COc1cc(/C=N\NC(=O)c2ccc(Cn3nc([N+](=O)[O-])c(Cl)c3C)o2)ccc1O
  .	17.8µM*
- O=C1CCCN1CC1CCCN(Cc2nc(COc3ccccc3)no2)C1 (stereo not drawn)
  i	-13.0%
- CC(C)(C)Nc1ncnc2c1cnn2-c1ccccc1
  i	-19.5%
- CC1CCN(C(=O)COC(=O)c2ccc([N+](=O)[O-])o2)CC1
  -8.3%	-3.1%
- CCOc1ccc(-n2c(Cc3cc(=O)[nH]c(=O)[nH]3)nnc2SCC(=O)OC)cc1
  0.8%	6.2%
- C=CC[C@H](CC(=O)N[C@H](CO)Cc1ccccc1)C(=O)N[C@@H](COC(=O)[C@@H](CC=C)CC(=O)OC(C)(C)C)Cc1c[nH]c2ccccc12
  ?	?
- O=C1OC=NC1=Cc1ccccc1
  -14.4%	-6.3%
- CC1CCN(C(C)C(=O)Nc2cc(S(=O)(=O)N3CCCCC3)ccc2Cl)CC1 (stereo not drawn)
  -19.8%	-7.3%
- CC1CCc2c(sc(/N=C/c3cccnc3)c2C(N)=O)C1 (stereo not drawn)
  -14.6%	-10.5%
- CCc1nc2ccc(N3CCN(C)CC3)cc2nc1CC
  -13.3%	-1.4%
- O=C(NCCc1ccc(Cl)cc1)C1COc2ccccc2C1 (stereo not drawn)
  -13.3%	-14.4%
- CC(C)c1cccc(C(C)C)c1NS(=O)(=O)c1cccs1
  -7.0%	-7.2%
- Cc1ccc(C)c(OCCn2c(C3CC(=O)N(Cc4ccc(F)cc4)C3)nc3ccccc32)c1 (stereo not drawn)
  -14.5%	-17.8%
- O=S(=O)(c1ccc(N2CCN(CCO)CC2)nc1)N1CCOCC1
  -2.4%	-19.1%
- CCCCC(=O)O[C@H]1CC[C@H]2[C@@H]3CCc4cc(O)ccc4[C@H]3CC[C@]12C
  -0.7%	-14.2%&-9.6%
- COc1ccc(C2CC(=O)C3=C(C2)Nc2ccccc2N(C(=O)C2CC2)C3c2cccnc2)cc1OC (stereo not drawn)
  i	-11.1%
- O=C(CCC(=O)N(CC(=O)NC1CCCC1)c1cccc(F)c1)Nc1nccs1
  -12.1%	-2.1%
- COc1ccc(NC(=O)CSc2ncnc3c2sc2ccccc23)c(OC)c1
  -11.0%	-11.1%
- CCOC(=O)c1ccc(NC(=O)CCn2c(=O)oc3ccccc32)cc1
  -12.2%&-7.0%	-7.2%&-8.6%
- C=CCn1c(N)c(C(=O)OC(C)CC)c2nc3ccccc3nc21 (stereo not drawn)
  -9.9%	-26.4%
- O=C(CN(C(=O)c1cccc([N+](=O)[O-])c1)C1CCCCC1)Nc1ccc(Cl)c([N+](=O)[O-])c1
  -9.2%	-8.9%
- CN(C)S(=O)(=O)c1cccn1-c1ncc(C(F)(F)F)cc1Cl
  -19.8%	-22.1%
- CC(C)c1cccc(O)c(=O)c1
  -14.6%[87.9 µM]	-6.4%[87.9 µM]
- COC(=O)C1=C(c2ccc(Cl)c(C(F)(F)F)c2)C[C@@H]2CC[C@H]1N2C(=O)NC1CCCCC1
  -12.1%	-26.6%
- COc1cc(C2C(C(=O)Nc3ccccc3C)=C(C)Nc3ncnn32)ccc1OCC(N)=O (stereo not drawn)
  -8.3%	-4.5%
- CCCCOC(=O)CCc1c(C)[nH]c(=O)c(C#N)c1C
  -17.1%	-17.4%
- CC(C)OC(=O)C1C2C=CC3(CN(C(C)c4ccc(Br)cc4)C(=O)C13)O2 (stereo not drawn)
  -3.0%	0.1%
- COCc1cc(C)nc2sc3c(c12)NC(c1ccccc1C(=O)O)N(c1ccc(OC)cc1)C3=O (stereo not drawn)
  i	-16.3%
- Nc1ncnc(Oc2cccc(C(F)(F)F)c2)c1[N+](=O)[O-]
  -3.2%	-18.1%
- Cc1cc(F)ccc1C(O)c1ncc(-c2ccccc2Cl)[nH]1 (stereo not drawn)
  23.7%	-18.3%
- O=[N+]([O-])c1ccccc1S(=O)(=O)NCc1ccccn1
  -22.9%	-14.1%
- Cc1ccccc1Cn1c(=O)[nH]c2ccccc21
  -14.2%	-9.7%
- O=C(NCCCO)c1cc2c([nH]c3ccccc32)c(-c2ccccc2)n1
  -0.5%	?
- CCOc1ccc(S(=O)(=O)Nc2cccc(Cl)c2)cc1
  -2.3%	-28.7%
- CCCCCCn1c(CN2CCCCC2C)nc2c1c(=O)n(C)c(=O)n2C (stereo not drawn)
  ?	-29.2%
- Cc1c(C(=O)O)[nH]c2ccc([N+](=O)[O-])cc12
  -13.3%	1.3%
- O=C(NC1CCCCC1)c1ccc(Cn2c(SCc3ccccc3F)nc3cccnc32)cc1
  i	-15.6%
- Cc1ccc(S(=O)(=O)NCC(=O)N2CCOCCOCCOCCOCC2)cc1
  -9.0%	-1.5%

# Going on with the list:
# Each structure is followed by: Vaccinia mCherry	Vaccinia Venus
- CN(Cc1ccccc1)c1ncc(C=O)s1
  i	-19.4%
- N#Cc1cccc(NC(=O)CNC(=O)Cc2ccccc2)c1
  13.4%	-5.5%
- O=Cc1ccc(OCc2cn(CC(=O)c3ccc(O)cc3)nn2)cc1
  i	-3.1%
- CC(C)OCCCn1c(=O)c2ccccc2n2c(-c3ccccc3F)nnc12
  i	-9.0%
- CCc1nc2c(OCc3cc(Cl)cc(Cl)c3)cccn2c1N(C)C(=O)Nc1ccccc1OC
  -2.7%	-10.6%
- CN(C(=O)CSc1nnc(-c2ccncc2)n1-c1ccccc1)C1CCS(=O)(=O)C1 (stereo not drawn)
  -14.5%	-12.8%
- O=C1c2c(-c3ccc(Br)cc3)noc2CCN1Cc1cn(-c2ccccc2)nn1
  -15.9%	-20.1%
- CC(C)Cc1cc(C(=O)Nc2c(F)cc(F)cc2Br)no1
  -8.7%	-0.8%
- CC(C)OC(=O)CSc1nnc(-c2cccnc2)n1N
  .	20.3%
- CC(C(=O)N1CCN(c2ccccc2F)CC1)c1ccc([N+](=O)[O-])cc1 (stereo not drawn)
  -14.0%	-8.8%
- CCn1c(SCC(=O)Nc2ccccc2-c2ccccc2)nnc1-c1ccoc1C
  -10.2%	-20.7%
- CC1(C(=O)NS(=O)(=O)c2cccc(OC(F)F)c2)CCN1C(=O)C1CC1 (stereo not drawn)
  21.0%	3.0%
- CCOc1ccc(OC(=O)c2ccc3c(=O)n4c(nc3c2)CCC4)cc1
  -11.5%	-3.1%
- O=C(Cc1ccc(Cl)cc1)Nc1ccccc1Sc1ccccc1
  i	-9.9%
- Cn1c(SCC(=O)NCc2ccc3c(c2)OCO3)nc2c(c1=O)SCC2
  -2.3%	-5.2%
- CN(C)c1cccc(NC(=O)C2Cc3c(-c4ccccc4Oc4ccccc4)ccnc3O2)c1 (stereo not drawn)
  -24.4%	-11.4%
- COCc1c(C(N)=O)nnn1-c1nonc1N
  i	-3.7%
- CCNC(=O)COC(=O)c1ccc(S(=O)(=O)N2CCCCCC2)cc1
  -10.5%	-12.8%
- O=C(NCC1CCCO1)C(c1ccncc1)N(Cc1cccs1)C(=O)CN1C(=O)c2ccccc2S1(=O)=O (stereo not drawn)
  5.0%	4.7%
- CN(C)S(=O)(=O)N1CCN(C(=O)N(c2ccccc2)c2ccccc2)CC1
  -26.3%	-15.5%
- CC(=O)Nc1ccc(S(=O)(=O)Oc2ccc(Br)cc2C(=S)N2CCOCC2)cc1
  -8.5%	-25.5%
- CC(C)NC(=O)CCn1c(=S)oc2ccccc21
  i	-14.5%
- COc1cc(CNC(=O)OCC(C)C)cc(OC)c1OC
  -20.8%[1.46 µM]	-19.0%
- COCCN(C(=O)CCC(=O)Nc1nccs1)C(C(=O)NCCC(C)C)c1ccc(F)cc1 (stereo not drawn)
  -19.4%	-8.6%
- O=C1N/C(=C/c2cccn2-c2ccccc2)C(=O)N1c1cccc(Cl)c1
  ?	-25.6%
- CS(=O)(=O)N1CCCC(C(=O)NCCc2ccccc2)C1 (stereo not drawn)
  i	0.7%
- Cc1c(Cl)cccc1Nc1nc(NCCO)c2ccccc2n1
  -12.9%	-24.1%
- COC(=O)CC1Oc2ccc(F)cc2-n2cc(-c3ccc(C)cc3)nc21 (stereo not drawn)
  -17.5%	-9.0%
- CCN(CC)S(=O)(=O)c1ccc2c(c1)N(CC(=O)Nc1c(C)cc(C)cc1C)C(=O)CS2
  -8.6%	-10.9%
- Cc1ccc(S(=O)(=O)NCC(=O)OCC(=O)N(C)C2CCS(=O)(=O)C2)cc1 (stereo not drawn)
  -9.6%	-9.7%
- COc1ccc(S(=O)(=O)N2CCC(C(=O)NC3CC3)CC2)cc1
  -21.4%	0.4%

# Screens from PubChem.
